# TAR Tat displ – TAR RNA-Tat peptide displacers, HIV-1, primary screen, biochemical, FRET, FAM/TAMRA-labeled Tat. HIV-1 TAR RNA, Tat peptide displacement FRET; active compounds read high. z-score (concentration not given with the values). hit rate 0.6% among 100,000;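 note: score is relative to mean and SD of negative controls; some compounds called inactive have numbers as strong as hits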
# CDC25B-CDK2 inh – primary biochemical HTRF screen for blockers of M-phase inducer phosphatase 2 binding to CDK2/cyclin A; HTRF CDC25B-CDK2/CyclinA binding, anti-His/anti-Flag; active compounds read high; hit rate 0.72% among 94,000; AID 1259370, 2018; z-score (no concentration beside the values); P30305+P24941;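 note: score is relative to mean and SD of negative controls; strong numbers were not always called active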
# Active calls of the source: *; · = no result given.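 Rule for the calls: active = z-score from 3 up in half or more of its runs; inactive = the rest.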 An unsorted share of the library. Share with any hit: about 0.97%.
SMILES,TAR Tat displ,CDC25B-CDK2 inh
CCOCCCNC(=O)Cn1cc2c(n1)CCCC2,0.36,-0.48
Cc1ccc2c(c1)C(Cc1nc3ccccc3c(=O)n1C)C(=O)N2C(C)C (stereo not drawn),2.05,-1.13
O=C(O)CCC(=O)c1ccc2c(c1)NC(=O)CO2,0.81,0.19
Cc1csc2nc(CSc3nc4sc5c(c4c(=O)n3C)CCCC5)cc(=O)n12,-1.13,-0.84
CC1=C(C(=O)NCCCN2CCCCC2C)C2(CCCCC2)OC1=O (stereo not drawn),0.61,·
Cc1ccc(Cl)c(Nc2ccccc2C(=O)O)c1Cl,-0.01,-0.42
O=C(Nc1nnc(SCc2nc3ccccc3[nH]c2=O)s1)c1ccccc1,1.1,·
CNC(=S)N/N=C/c1ccc(N(C)CCC#N)cc1,·,-0.76
NC(=O)c1nc(-c2cccc(O)c2)nc2c1[nH]c(=O)n2C1CCCCC1,1.35,·
CCOC(=O)N1CCC(NC(=O)C2=C(C)C(=O)OC23CCCCC3)CC1,0.18,-0.95
NS(=O)(=O)c1ccc(CCNC(=O)CCN2C(=O)c3cccnc3C2=O)cc1,·,0.09
O=S(=O)(c1ccc(Br)cc1)N1CCCC(c2nc(-c3ccccc3)no2)C1 (stereo not drawn),1.33,·
CN(Cc1ccco1)C(=O)c1cc2c(s1)-c1ccc(Cl)cc1SC2,2.66,-9.33
NC1=NC(c2cccc(F)c2)CC(=O)N1 (stereo not drawn),1.76,-0.06
Cc1ccc(-n2ncc3c2ncn2c(-c4ccccc4Cl)nnc32)cc1,-1.33,0.48
CC1CCCCC1NC(=O)C1(C)Cn2c(cc3sccc32)C(=O)N1CCN1CCOCC1 (stereo not drawn),1.54,-0.9
O=C1Cc2cc(S(=O)(=O)NC3CCCC3)ccc2N1,0.36,0.15
CN(C)c1ncc(C(=O)Nc2ccc(F)c(F)c2)cn1,1.22,·
O=C(O)CSCc1cccc2ccccc12,·,-1.59
CC(C)C(C(=O)O)N1C(=O)c2cccc3cccc(c23)C1=O (stereo not drawn),·,-0.35
CC(Oc1ccccc1)c1nnc(NC(=O)C(=O)c2c[nH]c3ccccc23)s1 (stereo not drawn),1.95,-2.1
O=C(NC1(C(F)(F)F)C(=O)Nc2c1c(=O)[nH]c(=O)n2Cc1ccco1)C1CCCCC1 (stereo not drawn),·,-1.95
O=C(NCc1cccs1)c1nn2c(C(F)(F)F)cc(-c3cccs3)nc2c1Cl,-5.91,-0.77
O=C(Cn1ncc2c3ccccc3n(Cc3ccccc3)c2c1=O)N1CCN(C(=O)c2ccco2)CC1,-0.16,-4.6
Cc1cccc(-c2noc(COc3cc(C)cc(C)c3C)n2)c1,·,-0.8
Cc1nn(CC(=O)NCc2ccccn2)c(=O)c2c1sc1ccccc12,1.53,-1.52
CC1(C(=O)NC2CCCCC2)Cn2c(cc3occc32)C(=O)N1Cc1cccs1 (stereo not drawn),1.39,·
COc1nc(-c2ccc(C)cc2)ccc1-c1noc(C(C)C)n1,1.37,1.78
O=C(O)COc1ccc(/C=C/c2nc(-c3ccccc3O)n[nH]2)cc1,2,-0.49
O=C(O)C1CCN(c2ncc3c(=O)n(Cc4ccccc4)ccc3n2)CC1,2.39,-1.54

# Retrieved one by one from the list above:
SMILES,TAR Tat displ,CDC25B-CDK2 inh
CN(Cc1ccco1)C(=O)c1cc2c(s1)-c1ccc(Cl)cc1SC2,2.66,-9.33
CN(C)c1ncc(C(=O)Nc2ccc(F)c(F)c2)cn1,1.22,·
O=C(Cn1ncc2c3ccccc3n(Cc3ccccc3)c2c1=O)N1CCN(C(=O)c2ccco2)CC1,-0.16,-4.6
CNC(=S)N/N=C/c1ccc(N(C)CCC#N)cc1,·,-0.76
O=C(O)CSCc1cccc2ccccc12,·,-1.59
O=S(=O)(c1ccc(Br)cc1)N1CCCC(c2nc(-c3ccccc3)no2)C1 (stereo not drawn),1.33,·
CC1CCCCC1NC(=O)C1(C)Cn2c(cc3sccc32)C(=O)N1CCN1CCOCC1 (stereo not drawn),1.54,-0.9

# Going on with the list:
SMILES,TAR Tat displ,CDC25B-CDK2 inh
COc1cc(OC)cc(-c2nnc(Cc3ccc(Cl)cc3)o2)c1,2.02,-2.17
CCC(C)NC(=O)Cn1c(=O)oc2cc(S(=O)(=O)NC3CCCC3)ccc21 (stereo not drawn),-0.17,-0.22
COc1ccccc1N1CCN(CCN2C(=O)CC3(CCCC3)CC2=O)CC1,·,-1.19
CCn1cc(C(=O)NCCC2=CCCCC2)c(=O)c2cc(S(=O)(=O)N3CCC(C)CC3)ccc21,0.75,0.82
COc1ccc(-c2noc(CNS(=O)(=O)c3ccc(F)cc3)n2)cc1,0.88,0.66
Cc1cc(-c2ccc(S(=O)(=O)Nc3ccc(C)c(Cl)c3)s2)n[nH]1,0.48,·
CCCCC(CC)CNS(=O)(=O)c1ccc2c(c1)CCN2C(=O)CC (stereo not drawn),-0.23,-2.23
O=S(=O)(NC1CCCC1)c1ccc(S(=O)(=O)N2CCN(c3ncccn3)CC2)cc1,1.21,-2.24
COCCCNS(=O)(=O)c1ccc2[nH]c3c(c2c1)CCCCC3,2.76,·
O=C(NCCN1CCCC1)c1ccc(CSc2nc3cccnc3n2Cc2ccc(F)cc2)cc1,-0.89,·

# Filtered by structure, the entries above containing two or more sulfur atoms.
SMILES,TAR Tat displ,CDC25B-CDK2 inh
Cc1csc2nc(CSc3nc4sc5c(c4c(=O)n3C)CCCC5)cc(=O)n12,-1.13,-0.84
O=C(Nc1nnc(SCc2nc3ccccc3[nH]c2=O)s1)c1ccccc1,1.1,·
CN(Cc1ccco1)C(=O)c1cc2c(s1)-c1ccc(Cl)cc1SC2,2.66,-9.33
O=C(NCc1cccs1)c1nn2c(C(F)(F)F)cc(-c3cccs3)nc2c1Cl,-5.91,-0.77
Cc1cc(-c2ccc(S(=O)(=O)Nc3ccc(C)c(Cl)c3)s2)n[nH]1,0.48,·
O=S(=O)(NC1CCCC1)c1ccc(S(=O)(=O)N2CCN(c3ncccn3)CC2)cc1,1.21,-2.24

# Other compounds:
SMILES,TAR Tat displ,CDC25B-CDK2 inh
CC(C)N1CCn2c(nc3cc(NC(=O)c4cccs4)ccc32)C1,-0.66,-1.37
CCOC(=O)c1nnn2c3ccccc3c(=O)n(Cc3ccc(Cl)cc3)c12,·,-1.33
CCOc1ccc(-c2nc(SCC(=O)c3ccc(OC)c(Br)c3)n[nH]2)cc1,1.21,0.69
Cc1ccc(S(=O)(=O)Nc2cc3c(cc2C)n(C)c(=O)n3C)cc1C,-0.92,-1.82
Cc1cccc(NC(=O)C2CCN(S(=O)(=O)c3c(C)noc3/C=C/c3ccco3)CC2)n1,-4.07,2.18
COc1ccc(OCC(=O)N(Cc2ccc(C)o2)C2CCS(=O)(=O)C2)cc1 (stereo not drawn),1.2,-2.6
Cc1ccc(C2c3c(-c4c(C)cc(C)cc4O)n[nH]c3C(=O)N2CCCO)cc1 (stereo not drawn),-0.43,0.14
Cc1ccc(C)c(CSc2ncc(CO)n2Cc2ccccc2)c1,1.29,·
C=C(C)C1CC=C(CO)CC1 (stereo not drawn),2.51,·
CN(Cc1ccco1)S(=O)(=O)c1nnc(NC(=O)c2ccco2)s1,5.51,-0.57

# Filtered by structure, the compounds so far containing a CF3 group (2)
SMILES,TAR Tat displ,CDC25B-CDK2 inh
O=C(NC1(C(F)(F)F)C(=O)Nc2c1c(=O)[nH]c(=O)n2Cc1ccco1)C1CCCCC1 (stereo not drawn),·,-1.95
O=C(NCc1cccs1)c1nn2c(C(F)(F)F)cc(-c3cccs3)nc2c1Cl,-5.91,-0.77

# More records:
SMILES,TAR Tat displ,CDC25B-CDK2 inh
FC(F)(F)c1ccnc(NCCNC(=S)NCCc2ccccc2)n1,·,-0.84
O=S(=O)(c1ccccc1)c1nnn2c1nc(Nc1ccccc1)c1sccc12,-0.36,·
Cc1[nH]nc(-n2cnnc2)c1NS(=O)(=O)c1ccc(N2CCCC2=O)cc1,2.59,-2.42
CC(=O)c1ccc(C#CC(C)(C)O)s1,·,0.74
CSC1=NC2(C)CCCCC2c2c1ccc1ccccc21 (stereo not drawn),·,-0.12
Cc1ccn2c(Nc3ccc(F)cc3)c(-c3ccccn3)nc2c1,·,-1.73
COc1ccccc1OCc1nc2c3c4c(sc3ncn2n1)CCCCC4,0.16,0.1
O=C(Nc1ccccc1C(=O)NCc1ccccn1)c1ccc([N+](=O)[O-])o1,·,-1.73
Cn1cc(S(=O)(=O)c2ccccc2)c(=O)c2cc(F)c(N3CCCC3)cc21,-0.46,·
CC1CSc2ccc(S(=O)(=O)Nc3ccc(-c4ccno4)cc3)cc2NC1=O (stereo not drawn),1.22,·
Nc1nonc1C1=NS(=O)ON1 (stereo not drawn),0.11,0.71
O=C1c2ccccc2-c2onc3c(Br)cc(NCCO)c1c23,-6.27,-1.55
Cc1cc(C)cc(N2C(=O)c3cc4occc4n3CC2(C)C(=O)NC2CCC(C)CC2)c1 (stereo not drawn),11.8*,·
COC(=O)C1=C(C)NC2=C(C(=O)C(C(=O)OC)C(C)C2)C1c1ccc2c(c1)OCO2 (stereo not drawn),2.49,-1.03
O=C(CCc1nc(-c2ccco2)no1)Nc1ccccc1Cl,1.66,-1.7
O=C(Nc1ccc(O)c(-c2nc3ccccc3o2)c1)c1cc2ccccc2oc1=O,·,-3.01
CS(=O)(=O)Nc1cccc(C2=NN(C(=O)c3ccco3)C(c3cccc(F)c3)C2)c1 (stereo not drawn),·,-0.87
Cc1ccc(S(=O)(=O)n2nc(-c3ccc(C(C)(C)C)cc3)cc2N)cc1,0.41,-0.52
Cn1c(=O)c2c(nc(NCc3ccccc3)n2Cc2ccc(Br)cc2)n(C)c1=O,-0.04,0.11
CCCCn1cc(S(=O)(=O)c2cc(C)cc(C)c2)c(=O)c2cc(F)c(N3CCOCC3)cc21,1.05,·
COc1ccc2ncc(S(=O)(=O)c3ccc(Cl)cc3)c(N3CCCC3)c2c1,-0.85,-1.45
Cc1ccc(NC2=NC3(CCCCC3)N=C(N)N2)cc1,·,-0.37
N#Cc1c(NC(=O)c2ccc(Cn3cc(Cl)cn3)o2)sc2c1CCCC2,0.15,-1.09
FC(F)(F)c1cc(-c2nc(CSc3ncccn3)no2)cc(C(F)(F)F)c1,·,-2.07
Cc1sc2nc(SC/C=C/c3ccccc3)nc(N)c2c1C,·,-0.73
Cc1cc(=O)[nH]c2c1c(C)nn2-c1ccc(F)cc1,1.47,·
Cc1cc(C)cc(Oc2c(C(F)(F)F)oc3c(CN4CCOCC4)c(O)ccc3c2=O)c1,2.31,-1.72
CCC12CN3CC(CC)(CN(C1)C3c1ccccc1O)C2O (stereo not drawn),0.39,0.16
Cn1cc(NC(=O)Nc2ccc3c(c2)OCCO3)c2ccccc2c1=O,0.36,·
CC1CCc2c(ccc3c4c(ccc23)C(=O)C(C)CC4)C1=O (stereo not drawn),·,-0.61
CCOC(=O)N1CCc2c(sc(NC(=O)c3ccc4c(c3)OCCO4)c2C(N)=O)C1,1.06,·
COc1cc(C2N(C(C)=O)N=C(NC(C)=O)N2C(C)=O)cc(OC)c1OC (stereo not drawn),·,-1.57
Cc1cc(C)nc(SCC(=O)NC2=NC(=O)C(C)S2)n1 (stereo not drawn),-0.03,-1.34
CCOC(=O)Cc1cc(=O)n2[nH]c(C)nc2n1,-8.01,1.42
CCOC(=O)N1CCN(C(=O)CCc2nc3sc4c(c3c(=O)[nH]2)CCC(C)C4)CC1 (stereo not drawn),-0.69,·
COCc1c(Br)c(C)nc2sc3c(=O)n(-c4ccccc4)nnc3c12,1.24,0.27
CCc1cc2c(cc3c(=O)n(CC(=O)NC4CCCc5ccccc54)ncn32)s1 (stereo not drawn),-1.62,-3.28
C=CCc1ccccc1OCc1ccc(C(=O)O)cc1,0.99,0.98
COC(=O)c1sc(S(C)=O)c(-c2ccon2)c1C (stereo not drawn),·,-1.82
CC(C)(C)CC(C)(C)NC(=O)C(Sc1ccccc1N)c1ccccc1 (stereo not drawn),·,-0.82
CC1CC(=O)Nc2ccccc2N1C(=O)c1ccc(F)cc1F (stereo not drawn),·,-0.8
Cc1cccc(C2Nc3ccccc3S(=O)(=O)N2Cc2ccccc2)c1 (stereo not drawn),·,-0.46
COC(=O)c1sc(NC(=O)CSc2nc3c(c(=O)[nH]2)CCCC3)nc1C,-1.27,-2.04
Cn1c(=O)[nH]c(=O)c2cnc(-c3ccccc3)nc21,-0.17,-0.71
CCOC(=O)Cn1c(=O)oc2cc(S(=O)(=O)NCCOC)ccc21,2.58,-1.28
O=C(Nc1c(C(=O)c2ccc(F)cc2)oc2ccccc12)c1ccccc1,0.63,-0.93
COc1cc(OC)cc(C(=O)Nc2ncn[nH]2)c1,0.46,1.17
Cc1cc(NCc2ccccc2)n2nc(-c3ccccc3)nc2n1,1.52,-1.78
Cc1ccc(S(=O)(=O)c2c[nH]c3ccc(Br)cc3c2=O)cc1,0.69,-1.65
O=C(Cn1ncc2c([nH]c3ccccc32)c1=O)Nc1nc2ccccc2s1,-0.23,·
# Continuation:
SMILES,TAR Tat displ,CDC25B-CDK2 inh
CSc1nc2ccccc2c(=O)n1CC1CCCCC1,·,-0.23
CC(C(=O)NCc1ccco1)n1ncn2c(cc3occc32)c1=O (stereo not drawn),1.71,2.92
C=CCn1nnc(NCc2ccccc2OCc2ccc(Cl)cc2)n1,1.19,·
COc1ccc2nc(SCC(=O)Nc3ccc4c(c3)OCO4)[nH]c2c1,-1.12,-4.6
CCOc1ccccc1NS(=O)(=O)c1ccc2c(c1)C(C)(C)C(=O)N2C,0.97,·
O=C(Nc1nnc2n1CCCS2)C1CC(=O)N(c2ccc(Cl)cc2)C1 (stereo not drawn),0.39,·
CC1=NC2c3c(oc(C(=O)N4CCCC4)c3C)CCC2S1 (stereo not drawn),1.69,·
O=C(CN1CCN(S(=O)(=O)c2ccc(Cl)s2)CC1)N1CCOCC1,·,-2.57
COCCNc1cc(C)nc2c(-c3ccc(Cl)cc3)c(C(F)(F)F)nn12,1.14,3.42
CCCc1cc(=O)n2[nH]c(-c3cccnc3)nc2n1,-0.71,2.61
CN1CCN(CCNC(=O)C2c3ccccc3C(=O)N(C)C2c2cccs2)CC1 (stereo not drawn),2.68,·

# Assay outcomes deposited in PubChem BioAssay by Center for Chemical Genomics, University of Michigan.
